# Screening data as filed in PubChem.
# Rango-impB inh – prevents formation of the Rango-importin beta complex | AID 540263 | 340,000 compounds, 0.031% hits | Rango CFP/YFP FRET sensor + importin beta, 45 min | Potency, µM (series often up to 92.2 µM), inactives show at the top dose inhibition of complex formation | Q14974; active = rising FRET ratio curve, often small or poorly fitted; inconclusive = mostly compound fluorescence or quenching in the first reads; inactive = flat curves in all reads;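 further: potency means the concentration at half of the fitted maximal effect; 0% = DMSO wells and 100% = buffer wells lacking importin beta; nearly all actives have a fitted effect of over 15% in size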
#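 FRET biosensor Rango (snurportin 1 IBB between N-terminal EYFP and C-terminal Cerulean), 50 nM in PBS/1 mM DTT/0.02% Tween-20/0.1% BSA, preincubated 5 min RT with compound; 0.125 microM importin beta added, 45 min RT, CFP/YFP FRET ratio read.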
# GLA inh pH 4.5 – inhibitors of human alpha-galactosidase A at pH 4.5 | P06280 | purified enzyme, 4-MU-alpha-Gal fluorescence, pH 4.5 | activity change, negative = inhibition, % at 105 µM | 230,000 tested, under 10 active; inconclusive = small, poorly fitted or top-dose-only inhibition, or a rising curve; inactive = flat fitted curve, though single readings scatter; no compound was filed as active;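 further: 0% = full activity with enzyme and -100% = basal without enzyme; dose as in the result columns while the protocol names 77 µM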
# Target sequence (P06280 whole entry, looked up): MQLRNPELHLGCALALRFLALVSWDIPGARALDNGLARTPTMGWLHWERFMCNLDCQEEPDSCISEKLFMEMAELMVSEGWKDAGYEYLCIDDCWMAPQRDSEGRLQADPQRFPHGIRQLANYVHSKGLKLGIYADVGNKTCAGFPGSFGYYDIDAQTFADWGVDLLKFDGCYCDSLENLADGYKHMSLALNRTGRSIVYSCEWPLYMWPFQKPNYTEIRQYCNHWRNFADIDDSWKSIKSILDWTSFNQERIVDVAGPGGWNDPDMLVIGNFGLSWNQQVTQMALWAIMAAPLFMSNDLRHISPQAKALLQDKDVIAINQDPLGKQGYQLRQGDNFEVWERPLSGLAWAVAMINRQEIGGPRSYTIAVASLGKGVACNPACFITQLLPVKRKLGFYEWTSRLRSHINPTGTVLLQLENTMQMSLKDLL
# miR-21 reporter – miR-21 reporter, rising signal; HeLa miR-21 FLuc reporter, luciferase, 48 h; 340,000 tested, under 10 active; AID 2288; Potency, µM (doses to about 38.3 µM), inactives show at the highest dose reporter change, positive = more light; active = well fitted rising curve with a large enough effect; inconclusive = small, poorly fitted or top-dose-only effect; inactive = no such curve, though single readings can be large or run the other way;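 further: % of control where 0% means no effect; miR-21 action dims this reporter so a rising signal means less miR-21 action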
#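 HeLa cells stably expressing CMV-driven firefly luciferase with a downstream miR-21 binding sequence, endogenously expressing miR-21, were treated with titrations (up to about 40uM final) for 48 hours at 37 degree Celsius. Luciferase luminescence was read after lysis.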
# Rango dissoc inh – inhibitors of RanGTP-induced Rango-importin beta complex dissociation. O95149+P62826. Biochemical FRET Rango-importin beta, RanGTP-induced dissociation. Potency, µM (titrated, usually from 46.1 µM), for inactives: at the top dose activity change, negative = inhibition. 340,000 compounds, 0.071% hits. AID 540253; active means falling FRET ratio curve, often poorly fitted, with flat reads before Ran was added; inconclusive means other falling curves, or compound fluorescence or quenching; inactive means flat or rising ratio curve;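 further: potency means the concentration at half of the fitted maximal effect; % of control where 0% means no effect; nearly all actives have a fitted effect of over 45% in size; -100% = wells without RanGTP and RCC1; the record marks most hits as doubtful in a second field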
#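 Rango FRET biosensor (snurportin-1 IBB flanked by N-terminal EYFP and C-terminal CFP10) at 0.1 uM, with 0.25 uM importin beta in PBS, 1mM DTT, 0.02% Tween-20, 0.1% BSA. 0.6 uM Ran, 2mM GTP and 0.2 uM RCC1 were then added for 45 min at room temperature. Inhibition read as loss of FRET rise.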
# The depositor's hits bear a star; ? = inconclusive; / = no result given.
No.	Rango-impB inh	GLA inh pH 4.5	miR-21 reporter	Rango dissoc inh	structure
1	-0.6%	-5	-11%	0%	CCN(C(=O)COC(=O)c1ccccc1SCC(=O)NC1CCCCCCC1)C1CCS(=O)(=O)C1 (stereo not given)
2	0.0%	4	-3%	48%	CC(C)c1nc2c(c(=O)n(C)c(=O)n2C)n1C
3	2.8%	/	/	-9%	Cc1ccc(S(=O)(=O)N2[C@@H](c3ccc(Br)cc3)C(C(=O)O)=CC[C@H]2c2ccc(Cl)c(Cl)c2)cc1
4	0.0%	/	/	1%	O=C(Cc1cccc(NC(=O)C2CCCN(C(=O)C3CC3)C2)c1)Nc1cccc(C(=O)N2CCOCC2)c1 (stereo not given)
5	?	-3	-50%	-1%	CCCCN=Cc1sc2ccc(OCC)cc2c1O
6	-0.4%	-2	-9%	-5%	COc1ccc(NC(=O)CS(=O)CC(=O)Nc2cc(Cl)ccc2OC)cc1 (stereo not given)
7	0.0%	-8	-17%	-17%	O=C(NC1CC1)c1cc2c(F)cccc2s1
8	0.2%	-3	0%	-24%	CCOC(=O)c1[nH]ncc1CN1CCC(Cc2ccccc2)(C(=O)OCC)CC1
9	?	-12	-1%	-2%	S=C(Nc1ccccc1)N1CCN(c2ccc(N3CCOCC3)nn2)CC1
10	-3.0%	/	-2%	-3%	COc1ccc(/C=C2\C(=N)N3N=C(CC(=O)N4CCCCC4)SC3=NC2=O)cc1
11	1.3%	8	-54%	12%	c1ccc(CSCc2cn3ccsc3n2)cc1
12	-2.9%	3	1%	2%	O=C(c1ccc(-c2ccccc2)cc1)N1CCN(C(=O)c2ccco2)CC1
13	0.7%	0	-8%	14%	O=C(NCc1ccc2c(c1)OCO2)c1cccc2c1C(=O)N(C1CCCCC1)C2
14	-4.3%	-9	-4%	-7%	C=CCn1c(CCSCc2ccccc2)n[nH]c1=S
15	1.0%	-1	-1%	-10%	COc1ccc(CC(=O)Nc2cccc(-c3csc(C)n3)c2)cc1
16	2.8%	6	-10%	-19%	COC(=O)Cn1cc(/C=N/NC(=O)c2ccc(C#N)cc2F)c2ccccc21
17	/	-8	-50%	/	COc1ccc(C2=NC(c3ccccc3)CO2)cc1 (stereo not given)
18	-0.4%	/	7%	-1%	CCC1Sc2ccc(S(=O)(=O)CCC(=O)Nc3ccccc3Cl)cc2NC1=O (stereo not given)
19	0.2%	/	8%	1%	O=C(C1CC(=O)N(C2CCCCC2)C1)N1CCN(c2cccc(C(F)(F)F)c2)CC1 (stereo not given)
20	-1.3%	4	-6%	4%	O=C(CSc1ccc(-c2ccccn2)nn1)NCc1ccc(F)cc1
21	2.5%	-3	1%	1%	CCCc1n[nH]c2c1C(=O)CC(C)(C)C2
22	-0.1%	/	-19%	36%	CCCCCOc1ccc(C(=O)CCN2CCOCC2)cc1
23	0.4%	-1	-5%	9%	CCN(CC(=O)NCc1ccc(Cl)cc1)C(=O)/C=C/c1cccs1
24	-5.6%	-2	-6%	4%	Cc1ccc(N(CC(=O)Nc2ccccc2C(=O)N2CCOCC2)S(C)(=O)=O)cc1
25	2.0%	-6	7%	17%	COc1ccc(CCNC(=O)CSCc2ccc(Cl)cc2)cc1OC
26	?	-1	1%	-9%	COc1cc(NC(=O)COC(=O)c2cnc(C)cn2)c(C)cc1[N+](=O)[O-]
27	-2.7%	/	-5%	-6%	CC1=NN(C(=O)c2ccc(Cl)cc2)C(O)(c2ccccc2)C1 (stereo not given)
28	-0.6%	-1	-1%	-3%	C#CCOCCOCCOCCNc1nc(N2CCOCC2)nc(N2CCN(C(=O)[C@H](CCC(=O)O)n3cc(C(N)Cc4ccc(O)cc4)nn3)CC2)n1 (stereo not given in full)
29	1.1%	-5	?	8%	Cc1cc(NC(=O)c2cc([N+](=O)[O-])ccc2Cl)no1
30	-7.7%	/	/	-13%	CC(C)NC(=O)Nc1ccc2c(c1)C(=O)N([C@H](C)CO)C[C@H](C)[C@@H](CN(C)C(=O)NC1CCCCC1)O2

# Single values from above.
# For GLA inh pH 4.5, Cc1ccc(N(CC(=O)Nc2ccccc2C(=O)N2CCOCC2)S(C)(=O)=O)cc1 is entered as -2
# For Rango dissoc inh, COc1ccc(NC(=O)CS(=O)CC(=O)Nc2cc(Cl)ccc2OC)cc1 (stereo not given) is entered as -5%

# Other records follow.
No.	Rango-impB inh	GLA inh pH 4.5	miR-21 reporter	Rango dissoc inh	structure
31	0.4%	5	-20%	10%	COc1ccc2sc(N3C(=O)C4CC=C(C)CC4C3=O)nc2c1 (stereo not given)
32	2.2%	/	-1%	-9%	Cc1cc(C)n2nc(CC(=O)NNC(=O)COc3ccccc3)nc2n1
33	-4.7%	5	-6%	17%	CCc1c(C(=O)NC2CCCC2)csc1C
34	-0.2%	8	-48%	4%	N#Cc1cccc(-c2nnc(SCc3ccccc3C#N)o2)c1
35	?	/	-12%	?	N#C/C(=C\c1ccc(-c2ccc(C(=O)O)cc2)o1)C(=O)Nc1ccc(F)cc1
36	-3.6%	/	/	7%	CC1CCCN(C(=O)c2cn(-c3ccccc3)nc2-c2cccnc2)C1 (stereo not given)
37	-0.5%	/	-3%	-2%	COc1ccc(CN2CCNC(=O)C2CC(=O)NC2CCCCC2)c(OC)c1 (stereo not given)
38	-0.7%	-18	-29%	2%	O=C(Nc1nc(COc2ccccc2)cs1)C1CCC1
39	-1.7%	-6	-3%	-3%	COC(=O)CN1C2(C#N)CCCCC2CC2CCCCC21C#N (stereo not given)
40	-0.6%	/	9%	-18%	Cc1ccc(-c2c(C(=O)N/N=C/c3c[nH]c4ccccc34)nnn2-c2nonc2N)cc1
41	1.6%	-4	-25%	-1%	CC1=NN(c2ccccc2)C(=O)/C1=C\c1cc(C)n(C)c1C
42	4.2%	/	/	15%	O=C(O)C1CCC(C(=O)O)O1 (stereo not given)
43	1.2%	/	/	1%	CCN(Cc1ccc2c(c1)OCO2)C(=O)CSc1nc(C)nc2sc(C)c(C)c12
44	-3.5%	0	-34%	22%	Cc1ccc(N2CCN(c3ccc(C)cc3)C2c2ccccn2)cc1
45	?	2	-4%	1%	CCN(CC)C(=O)CSC(Nc1ccc(F)cc1)=C(C#N)C#N
46	-1.6%	-4	0%	-9%	O=C(NC(=S)NNS(=O)(=O)c1ccccc1)c1ccccc1[N+](=O)[O-]
47	-0.1%	/	-76%	-15%	O=[N+]([O-])c1ccccc1COc1ccc(Cl)c2cccnc12
48	6.3%	/	/	-3%	Nc1ccc(C(=O)C(=O)c2ccccc2)cc1
49	-1.9%	-4	-5%	-13%	Cc1cccc(C)c1OCC(O)CNS(=O)(=O)c1ccccc1C(=O)N1CCOCC1 (stereo not given)
50	1.7%	-6	-4%	2%	Cc1cc(NC(=O)CSc2ccc(-c3ccc(F)cc3)nn2)no1
51	2.6%	12	-1%	0%	O=C1CCC(=O)N1c1nc2nc(-c3ccccc3)cc(=O)n2[nH]1
52	-2.4%	/	-23%	-14%	CCc1nc(CN(C)C(=O)C2CCC(=O)N(CCc3cccc(F)c3)C2)no1 (stereo not given)
53	?	-2	-5%	10%	CC(OC(=O)c1cccs1)C(=O)NCc1ccco1 (stereo not given)
54	-1.6%	-3	2%	-3%	COC(=O)CC1=C(C(=O)OC)C(c2ccncc2)C(C#N)=C(N)O1 (stereo not given)
55	-1.4%	-1	-9%	7%	O=C(COc1ncnc2ccccc12)Nc1cc(S(=O)(=O)N2CCOCC2)ccc1Cl
56	3.6%	8	-1%	26%	Cc1nnc(NC(=O)CSc2cn(Cc3ccccc3)c3ccccc23)s1
57	0.6%	/	/	-12%	COc1ccc(NC(=O)COC(=O)c2ccc(-n3nc(C)cc3C)cc2)cc1OC
58	0.2%	-11	-2%	-9%	COc1ccc(C(CC(=O)O)NC(C)=O)cc1OC (stereo not given)
59	0.4%	1	24%	2%	CC1=CC(C)(C)N(S(=O)(=O)c2ccc(C)cc2)c2ccccc21
60	-3.0%	-4	-1%	6%	COc1ccc([N+](=O)[O-])c(OC)c1C(=O)NC(=O)Nc1c(F)cc(F)cc1F

# Additional records.
No.	Rango-impB inh	GLA inh pH 4.5	miR-21 reporter	Rango dissoc inh	structure
61	-1.3%	-3	-2%	29%	O=C(COC(=O)c1cc(=O)[nH]c2ccccc12)c1ccccc1
62	-0.5%	-3	-2%	-2%	c1cc(C2OCCN2CC2COC3(CCCC3)O2)ccn1 (stereo not given)
63	4.7%	/	0%	-7%	COc1ccccc1CCN=C(N)NS(=O)(=O)c1ccc(C)c(C)c1
64	-0.2%	-3	-1%	-7%	C=CCOc1ccc(Br)cc1/C=N/O
65	0.5%	-13	-3%	-2%	COCC(C)NC(=O)C1CC(c2cccc(Br)c2)=NO1 (stereo not given)
66	-0.2%	3	-3%	11%	CCOC(=O)N1CCN(C(=O)CSc2ccc(-c3ccccc3)nn2)CC1
67	-1.9%	/	/	-19%	NS(=O)(=O)c1ccc(CCNC(=O)C2CC(=O)N(Cc3ccccc3Cl)C2)cc1 (stereo not given)
68	-1.4%	/	4%	-16%	CCOc1cc(C2Nc3ccccc3NC3=C2C(=O)CC(C)(C)C3)ccc1OC(C)=O (stereo not given)
69	-2.0%	-7	16%	-2%	COc1cccc(C(=O)NCCSc2c(C)[nH]c3ccccc23)c1OC
70	-0.2%	-5	-1%	3%	Cc1cc(C)n(-c2nnc(N3CCN(c4ccc(F)cc4)CC3)nn2)n1
71	1.3%	3	-4%	-3%	Cn1c(=O)c(C(=O)CSc2nnc(Nc3ccccc3)s2)c(N)n(Cc2ccccc2)c1=O
72	-4.4%	/	/	-21%	CC12CCC(=O)N1C(C(=O)Nc1nc3ccc(F)cc3s1)CS2 (stereo not given)
73	-2.2%	/	-1%	1%	CCC(C)(C)NC(=O)C(c1ccc(OC)cc1)N(C(=O)CCC(=O)Nc1cc(C)on1)c1ccccc1F (stereo not given)
74	-3.0%	0	-18%	-5%	CCOC(=O)c1c(/N=C/N(C)C)sc(C)c1C
75	-2.4%	0	0%	-2%	CC1=C(C(=O)Nc2ccccc2)C(c2ccco2)C(C#N)=C(SCC(N)=O)N1 (stereo not given)
76	?	-2	1%	-12%	Cc1nc2c(C)cccn2c1/C(O)=C1\C(=O)C(=O)N(CCN2CCOCC2)C1c1ccncc1 (stereo not given)
77	?	-3	-7%	?	CCOC(=O)N1CCc2c(sc(NC(=O)c3ccc(S(=O)(=O)N4CCCC4)cc3)c2C#N)C1
78	3.3%	-1	1%	-12%	CC(NC(=O)c1cccnc1)C(c1cccs1)N1CCN(C)CC1 (stereo not given)
79	-2.4%	4	0%	-21%	CC(C)(C)C(=O)N1CCc2cc(-c3csc(N)n3)ccc21
80	3.6%	-12	-4%	-2%	COc1ccc(CCNC(=O)CSc2ccsc2[N+](=O)[O-])c(OC)c1
81	0.6%	0	21%	-4%	N#Cc1ccc2ccn(CC(=O)NCc3ccccc3)c2c1

# Some of these compounds in order of the GLA inh pH 4.5 value, descending.
No.	Rango-impB inh	GLA inh pH 4.5	miR-21 reporter	Rango dissoc inh	structure
81	0.6%	0	21%	-4%	N#Cc1ccc2ccn(CC(=O)NCc3ccccc3)c2c1
77	?	-3	-7%	?	CCOC(=O)N1CCc2c(sc(NC(=O)c3ccc(S(=O)(=O)N4CCCC4)cc3)c2C#N)C1
70	-0.2%	-5	-1%	3%	Cc1cc(C)n(-c2nnc(N3CCN(c4ccc(F)cc4)CC3)nn2)n1
69	-2.0%	-7	16%	-2%	COc1cccc(C(=O)NCCSc2c(C)[nH]c3ccccc23)c1OC

# Limited to miR-21 reporter, Rango-impB inh and Rango dissoc inh (two entries from above):
no.	SMILES	miR-21 reporter	Rango-impB inh	Rango dissoc inh
74	CCOC(=O)c1c(/N=C/N(C)C)sc(C)c1C	-18%	-3.0%	-5%
75	CC1=C(C(=O)Nc2ccccc2)C(c2ccco2)C(C#N)=C(SCC(N)=O)N1 (stereo not given)	0%	-2.4%	-2%

# Record cards (already shown). Order of screens: Rango-impB inh, GLA inh pH 4.5, miR-21 reporter, Rango dissoc inh
# Cc1ccc(-c2c(C(=O)N/N=C/c3c[nH]c4ccccc34)nnn2-c2nonc2N)cc1 as listed: -0.6%, /, 9%, -18%
# N#C/C(=C\c1ccc(-c2ccc(C(=O)O)cc2)o1)C(=O)Nc1ccc(F)cc1 as listed: ?, /, -12%, ?

# Some of the compounds tested. The share of hits here may be higher or lower than overall.
